# Screens: PubChem, National Center for Advancing Translational Sciences (NCATS)
# TRPML1 blocker – human mucolipin-1 channel inhibition | Q9GZU1 | hit rate 0.02% among 390,000 | TRPML1-inducible cells, Ca2+ dye fluorescence, FDSS; active compounds read low; inhibition of EC80 agonist-evoked calcium signal | activity change, negative = inhibition, % (concentration not given with the values); in the data active means activity change below about -50%; inconclusive means about -30% to -50%; inactive means above about -30%;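 note: stimulus is agonist 54-4 at its EC80 concentration; % is set by controls: 0 for no effect and ±100 for the full control effect; the text of the record puts the active cut at -80%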
# Target sequence (Q9GZU1 whole entry, looked up): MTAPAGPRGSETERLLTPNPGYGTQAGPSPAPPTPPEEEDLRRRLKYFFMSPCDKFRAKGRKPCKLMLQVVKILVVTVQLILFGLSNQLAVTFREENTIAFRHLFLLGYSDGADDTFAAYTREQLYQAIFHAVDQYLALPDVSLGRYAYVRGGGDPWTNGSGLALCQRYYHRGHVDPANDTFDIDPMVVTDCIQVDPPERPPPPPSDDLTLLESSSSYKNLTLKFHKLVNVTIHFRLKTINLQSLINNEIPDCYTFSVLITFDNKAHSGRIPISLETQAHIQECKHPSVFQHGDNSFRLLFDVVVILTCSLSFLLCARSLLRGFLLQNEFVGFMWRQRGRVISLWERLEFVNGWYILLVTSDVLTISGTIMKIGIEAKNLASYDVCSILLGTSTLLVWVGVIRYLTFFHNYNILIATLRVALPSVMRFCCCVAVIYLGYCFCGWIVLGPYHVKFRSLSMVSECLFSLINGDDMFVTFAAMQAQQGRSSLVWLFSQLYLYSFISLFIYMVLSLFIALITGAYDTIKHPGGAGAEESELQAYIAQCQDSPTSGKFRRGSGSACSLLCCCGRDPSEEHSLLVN
#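 Tet-induced TRPML1-DL cells loaded with Ca8 no-wash calcium dye were read kinetically on FDSS. Compound addition was followed by EC80 agonist 54-4 (4 uM final); inhibition was read over 110 s.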
# PINK1 expr mod – modulators of PINK1 expression | PINK1 immunofluorescence, high-content cytometry, 24 h | AID 624263 | Potency, µM (titrated, usually from 76.6 µM), for inactives: at the top dose activation (PINK1 increase), usual class: activators | hit rate 0.2% among 410,000; active = well fitted activation curve with a large enough effect; inconclusive = small, poorly fitted or top-dose-only effect; inactive = flat fitted curve, though single readings scatter; cell line not stated here;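 note: potency is the fitted concentration of half-maximal effect; % of control where 0% means no effect; nearly all actives have a fitted effect of over 65% in size; a mitochondrial uncoupler was the plate control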
#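 A stable cell line was treated with compounds at 5 concentrations for 24 hours, with CCCP as control. PINK1 levels and mitochondrial localization were measured by immunofluorescence with mitochondrial, cell and nuclear markers after fixation, read by laser-scanning cytometry.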
# CtBP-E1A inh – inhibitors of CtBP/E1A interaction; activity change, % (no concentration beside the values); AlphaScreen GST-E1A/His-CtBP binding, 1536-well; active compounds read low; control for the full effect not named in the record; hit rate 0.49% among 340,000; AID 651724; in the data active means activity change below about -65%; inconclusive means about -30% to -65%; inactive means above about -30%; note: % is set by controls: 0 for no effect and ±100 for the full control effect
#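 In 5 uL wells, 23 nL compound meets equimolar GST-E1A and His-CtBP (5X stock 125 nM each) for 2 h, 37 °C. Beads (5X, 50 ug/mL) then 1 h, 37 °C, dark.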
# Six1-Eya2 inh – inhibitors of human Six1/Eya2 interaction. AlphaScreen GST-Six1/His-Eya2 binding, biochemical; active compounds read low; control for the full effect not named in the record. activity change, % (concentration not given with the values). hit rate 0.56% among 360,000. AID 651725; in the data active = activity change below about -65%; inconclusive = about -30% to -65%; inactive = above about -30%; note: % is set by controls: 0 for no effect and ±100 for the full control effect
#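 AlphaScreen luminescence read after one hour at 37 °C in darkness. Pin-transferred compounds met GST-Six1 and His-Eya2 protein (5X stock 250 nM/500 nM) plus glutathione donor and Ni-chelate acceptor beads (5X, 50 ug/mL).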
# TRPML1 ag – activates the human TRPML1 channel. Q9GZU1. TRPML1-expressing cells, Ca2+ dye fluorescence, FDSS; host cell line not named in the record; reference of the full effect not given here. activation, % (test concentration not listed). hit rate 0.12% among 410,000; in the data active = activation above about 50%; inconclusive = about 30% to 50%; inactive = below about 30%; note: 0% is about no effect; the text of the record puts the active cut at 80%
#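 Calcium fluorescence on an FDSS kinetic reader gave the read-out. Tet-induced TRPML1-DL cells were plated overnight, dye-loaded (Ca8 with quencher, 45-90 min, room temperature, dark), then read 110 s after compound addition, and again 110 s after 4uM final 54-4 (EC80).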
# D2 ag – human D2 receptor agonism in beta-arrestin assay; activation, % (no concentration beside the values); DiscoveRx PathHunter D2 beta-arrestin, luminescence, 90 min; 100% = 57 uM dopamine signal; AID 624465; hit rate 0.084% among 360,000; P14416; in the data active = activation above about 40%; inconclusive = about 15% to 40%; inactive = below about 15%; note: compound concentration not given in the record; the text of the record calls up to 30% inactive
# Target sequence (P14416 whole entry, looked up): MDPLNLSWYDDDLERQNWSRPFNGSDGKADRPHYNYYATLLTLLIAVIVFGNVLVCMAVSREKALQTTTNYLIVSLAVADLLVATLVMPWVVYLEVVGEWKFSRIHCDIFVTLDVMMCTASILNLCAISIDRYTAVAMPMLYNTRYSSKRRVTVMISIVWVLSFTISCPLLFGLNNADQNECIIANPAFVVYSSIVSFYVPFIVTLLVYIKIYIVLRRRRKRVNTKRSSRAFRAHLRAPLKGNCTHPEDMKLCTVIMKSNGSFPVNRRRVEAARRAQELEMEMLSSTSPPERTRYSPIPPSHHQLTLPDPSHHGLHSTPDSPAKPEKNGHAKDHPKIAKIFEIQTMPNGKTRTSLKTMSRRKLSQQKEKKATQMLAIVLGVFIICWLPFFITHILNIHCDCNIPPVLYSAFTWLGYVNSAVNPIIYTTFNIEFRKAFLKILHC
#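 DiscoveRx PathHunter D2 beta-arrestin cells (2,100/well) attached overnight, then compound-stimulated 90 min at 37 C in HBSS/10 mM HEPES/0.1% Tween-20 buffer; beta-galactosidase complementation read by luminescence after 1 h at ambient temperature. Dopamine 57 uM final (EC100) as control.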
# * hit, by the source's call; u = inconclusive; x = not tested or not shown; [ ] = dose if it differs, or a comment.
SMILES,TRPML1 blocker,PINK1 expr mod,CtBP-E1A inh,Six1-Eya2 inh,TRPML1 ag,D2 ag
CCOc1ccc(N(C(=O)c2snc(C(N)=O)c2N)C(CC)C(=O)NC2CCCC2)cc1 (configuration not stated),-17.1,4.2%,9.2,29.4,2.7,-3.6
CCOC(=O)Cc1c(C)nc2c(-c3ccccc3)c(-c3ccccc3)[nH]n2c1=O,-8.5,4.2%[38.3 µM],u,-75.2*,3.0,-6.0
CCOP(=O)(OCC)C(NC(=O)Nc1ccccc1)c1ccccc1 (configuration not stated),-0.8,-1.4%,-9.6,-0.8,-0.3,-5.4
Cc1ccc(NC(=O)CCC(=O)c2cccs2)cc1F,-13.3,0.6%,-0.9,7.0,2.0,-5.0
COc1ccc2ccccc2c1C1CC(=O)N2CN(C)CSC2=C1C#N (configuration not stated),2.0,0.2%,-1.4,-7.0,-1.0,2.5
Cc1n[nH]c(=S)n1/N=C/c1ccccc1OCc1ccc(Cl)cc1Cl,-1.3,12.6µM*,-7.1,1.5,0.0,-0.4
O=C(O)CSc1nc(-c2ccccc2)cc(=O)[nH]1,7.1,x,13.3,-1.1,0.1,-0.5
O=C(N[C@@H](Cc1ccc(O)cc1)C(=O)O)C(c1ccccc1)c1ccccc1,14.4,-0.2%,0.3,5.4,-0.4,-0.2
COc1ccc(-n2c(-c3ccc(Br)cc3)nc(=S)c3c2CCCC3)cc1,29.3,4.0%,0.3,5.5,1.5,-1.8
O=C(N/N=C/c1ccc(F)cc1)c1cc[n+]([O-])cc1,7.7,2.8%,-2.4,3.4,0.1,-1.6
COc1cccc(C(O)c2nc(-c3ccccc3)cs2)c1 (configuration not stated),x,6.3%,3.3,2.2,0.4,-4.0
Cc1csc(/C(C#N)=N/O)n1,-23.7,8.5%[38.3 µM],8.8,6.6,-0.3,0.9
C/C(=N\NC(=O)c1cnccn1)c1ccc([N+](=O)[O-])cc1,6.4,-1.5%,6.9,1.5,0.0,-0.4
O=C(Nc1ccccc1F)NC1CCCc2ccccc21 (configuration not stated),u,2.2%,8.8,3.1,0.2,0.6
CCC1CN(C(=O)N2CCC(C(=O)NCCCc3ccccc3)CC2)c2cc(C)ccc2O1 (configuration not stated),-19.6,0.6%,x,x,1.2,x
CCc1ccc(S(=O)(=O)n2ccnc2)cc1,-12.7,0.7%,x,x,1.2,x
COc1ccccc1/C=C/CN1CCN(Cc2ccc(C)o2)C(CCO)C1 (configuration not stated),-11.0,1.6%,0.9,-1.3,-0.2,-3.8
Cc1cc(F)ccc1S(=O)(=O)Nc1cc2c(C(=O)O)c(C)oc2c2ccccc12,11.0,-2.0%,x,x,0.1,x
O=C(C=C1SCCS1)/C=C/c1ccco1,-9.9,-4.9%,-4.8,-13.8,-0.4,-4.0
Cc1ccc(-c2nc(N3CCCC(C)C3)c3ccccc3n2)cc1 (configuration not stated),-3.9,0.8%,x,x,-0.3,x
CN(CC(=O)Nc1cccc(F)c1)C(=O)c1ccc(N2C(=O)c3ccccc3C2=O)cc1,-4.2,1.9%,26.9,-18.3,-0.4,-1.8
Cc1ccc(NS(=O)(=O)c2ccc(NC(=O)C3CCCO3)cc2)cc1 (configuration not stated),3.8,1.9%,5.8,6.0,0.3,-8.2
Cc1nc2ccccc2c2nc3ccccc3n12,3.2,x,8.1,u,-0.6,-0.9
Cc1cccc(Nc2ncnc3onc(-c4cccc(Cl)c4)c23)c1,17.0,0.5%,x,16.8,3.3,7.9
COc1ccc(CC2(CO)CCN(Cc3cnn(-c4ccccc4)c3)CC2)cc1,8.2,2.7%,6.5,-1.2,2.6,-5.7
CCCN1Cc2cccc(C(=O)NC(CC(=O)OCC)c3ccc(OC(C)C)cc3)c2C1=O (configuration not stated),1.7,1.2%,1.6,-2.8,-0.7,5.2
COc1cc(CN2CCC(C(=O)N3CCCC(C)C3)CC2)cc(Br)c1O (configuration not stated),8.2,-1.3%,-0.9,2.0,-0.3,-3.0
O=C(COc1ccc(Br)cc1CO)Nc1ccc(S(=O)(=O)N2CCCCC2)cc1,-13.1,16.3%,0.0,15.6,0.2,3.7
Cc1cc(NC(=S)N(Cc2ccc(Cl)cc2)Cc2ccc(C(=O)O)cc2)ccc1Cl,-0.7,0.6%,-2.1,6.2,-0.2,-0.8
O=C(Nc1ccc(C(=O)O)cc1)/C(=C\c1ccccc1)NC(=O)c1ccccc1,-15.5,0.4%,0.0,0.0,0.6,-4.9
N#CC(c1ccc(Cl)cc1)c1ccc2c(C(F)(F)F)cc(C(F)(F)F)nc2n1 (configuration not stated),-6.2,u,u,u,0.3,-2.9
Cc1cc([N+](=O)[O-])nn1CC(=O)Nc1nccs1,-7.2,1.3%,-7.2,1.1,0.0,-4.7
C=C1CCN([C@@H](CC(C)C)C(=O)NCc2ccc(Cl)c(Cl)c2)S(=O)(=O)c2ccccc21,-16.7,0.6%,-5.4,-13.0,6.8,-2.2
CC(C)(C)C(=O)Nc1cccc(OC(F)(F)C(F)Cl)c1 (configuration not stated),-12.6,0.6%,15.1,-2.4,-0.5,-2.6
Cc1ccc2[nH]c(=O)c(CN(Cc3ccc4c(c3)OCO4)Cc3nnnn3C3CCCC3)cc2c1,0.4,-0.3%,-6.3,2.5,1.2,-1.6
O=C(NCCOc1nc(N2CCOCC2)nc(N2CCOCC2)n1)Nc1ccc(Cl)cc1,-8.6,9.7%[38.3 µM],8.7,-1.7,0.8,-1.3
COC(=O)C1=C(N)Oc2cc(C)n(CCCn3ccnc3)c(=O)c2C1c1ccc(Cl)cc1 (configuration not stated),5.9,-0.3%,-10.6,-3.5,-1.0,-1.5
CC(=O)c1nn(-c2ccc(Cl)cc2)cc1C(=O)c1ccc(C)cc1,17.3,6.2%,-17.2,-13.1,1.7,-2.4
COc1ccc(-c2cc(C)no2)cc1S(=O)(=O)NCC(C)c1ccccc1 (configuration not stated),-16.3,2.3%,-14.2,0.2,-0.9,8.0
COc1ccc(/C=c2\s/c(=C/C(=O)c3ccc(C)cc3)[nH]c2=O)cc1OC,10.6,8.8%,17.1,1.9,20.9,-1.5

# Reprinted from the part before: 2 compounds; new compounds follow.
SMILES,TRPML1 blocker,PINK1 expr mod,CtBP-E1A inh,Six1-Eya2 inh,TRPML1 ag,D2 ag
COc1ccc(-c2cc(C)no2)cc1S(=O)(=O)NCC(C)c1ccccc1 (configuration not stated),-16.3,2.3%,-14.2,0.2,-0.9,8.0
COc1ccc(/C=c2\s/c(=C/C(=O)c3ccc(C)cc3)[nH]c2=O)cc1OC,10.6,8.8%,17.1,1.9,20.9,-1.5
CC1CCc2c(sc(NC(=O)Cn3nc(C(F)(F)F)c4c3CCCCC4)c2C#N)C1 (configuration not stated),10.4,x,-1.8,5.9,0.0,-0.6
COc1ccc(C(=O)CCC(=O)Nc2cc(C)ccc2C)cc1,32.3,-2.2%,x,x,-0.2,x
CC1CCN(S(=O)(=O)c2ccc3c(c2)N(CC(=O)NC(C)c2ccccc2)C(=O)CO3)CC1 (configuration not stated),-6.0,0.3%,x,x,4.5,x
CC(C)C(C(=O)OCC(=O)c1ccc2c(c1)NC(=O)CO2)N1C(=O)c2ccccc2C1=O (configuration not stated),0.4,-0.3%,5.5,-1.0,0.4,-3.7
Cn1nc(C(=O)NCc2ccc(F)cc2)cc1C(=O)NCc1ccc(F)cc1,5.5,1.3%,2.0,-4.1,-0.6,-2.0
CCN(CC)c1ccc(NC(=O)c2c(C)noc2C)cc1,3.3,0.7%,3.5,-3.3,1.0,4.6
CCCCOC(=O)c1c(C)oc2ccc(NS(=O)(=O)c3ccc4c5c(cccc35)C(=O)N4)cc12,-1.1,-1.1%,5.5,-18.7,0.4,3.5
COc1cccc(NC(=O)CN(C)CC(=O)Nc2ccc3c(c2)CCC3)c1,-5.5,-0.9%,1.7,5.7,0.9,-3.9
COc1ccc(Cl)cc1NC(=O)C1CCCN(c2ncnc3c2nc2n3CCCCC2)C1 (configuration not stated),-5.4,1.0%,7.8,-1.1,0.1,0.5
CC(=O)c1ccc(S(=O)(=O)NCc2nnnn2-c2ccccc2)cc1,5.3,1.0%,x,3.7,3.6,-1.5

# 10 entries from above, sorted by heavy-atom count, ascending:
SMILES,TRPML1 blocker,PINK1 expr mod,CtBP-E1A inh,Six1-Eya2 inh,TRPML1 ag,D2 ag
CCN(CC)c1ccc(NC(=O)c2c(C)noc2C)cc1,3.3,0.7%,3.5,-3.3,1.0,4.6
COc1ccc(C(=O)CCC(=O)Nc2cc(C)ccc2C)cc1,32.3,-2.2%,x,x,-0.2,x
CC(=O)c1nn(-c2ccc(Cl)cc2)cc1C(=O)c1ccc(C)cc1,17.3,6.2%,-17.2,-13.1,1.7,-2.4
CC(=O)c1ccc(S(=O)(=O)NCc2nnnn2-c2ccccc2)cc1,5.3,1.0%,x,3.7,3.6,-1.5
COc1ccc(-c2cc(C)no2)cc1S(=O)(=O)NCC(C)c1ccccc1 (configuration not stated),-16.3,2.3%,-14.2,0.2,-0.9,8.0
Cn1nc(C(=O)NCc2ccc(F)cc2)cc1C(=O)NCc1ccc(F)cc1,5.5,1.3%,2.0,-4.1,-0.6,-2.0
CC1CCc2c(sc(NC(=O)Cn3nc(C(F)(F)F)c4c3CCCCC4)c2C#N)C1 (configuration not stated),10.4,x,-1.8,5.9,0.0,-0.6
COc1ccc(Cl)cc1NC(=O)C1CCCN(c2ncnc3c2nc2n3CCCCC2)C1 (configuration not stated),-5.4,1.0%,7.8,-1.1,0.1,0.5
CC1CCN(S(=O)(=O)c2ccc3c(c2)N(CC(=O)NC(C)c2ccccc2)C(=O)CO3)CC1 (configuration not stated),-6.0,0.3%,x,x,4.5,x
CCCCOC(=O)c1c(C)oc2ccc(NS(=O)(=O)c3ccc4c5c(cccc35)C(=O)N4)cc12,-1.1,-1.1%,5.5,-18.7,0.4,3.5

# Following part.
SMILES,TRPML1 blocker,PINK1 expr mod,CtBP-E1A inh,Six1-Eya2 inh,TRPML1 ag,D2 ag
CCCS(=O)(=O)c1nc(S(=O)(=O)c2ccc(C)cc2)c(N2CCCC(C)C2)s1 (configuration not stated),9.6,-1.0%,0.3,-1.0,1.7,-3.2
CC1(C(=O)NS(=O)(=O)c2cccs2)CCN1C(=O)c1ccco1 (configuration not stated),-27.4,0.4%,-3.2,9.4,0.4,-4.6
CCOC(=O)CSc1nc2sc3c(c2c(=O)[nH]1)CC(C)(CC)OC3 (configuration not stated),7.2,2.2%[38.3 µM],7.5,-0.2,-0.5,-0.5
CC(C)CCNC(=O)c1ccc2c(Cl)c3c(nc2c1)CCC3,-11.3,-0.5%,-26.4,-3.3,-0.4,2.4
